Ecoli rRNA inh: reduced GFP signal of wild-type E. coli, primary screen, bacterial rRNA inhibitor project, GFP/RFP fluorescence, OD600, single point | E. coli WT GFP vs humanized-ribosome RFP mutants, 24 h; active compounds read low; DMSO median 0, no signal -100 | 1.6% of 350,000 active | AID 720706, 2013 | GFP signal change (wild-type ribosome), % (concentration not given with the values);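 active = significant combined selectivity score with lowered wild-type GFP, culture density cut under 30%, mutant RFP and density less affected; inactive = any of these conditions unmet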; also: one replicate is shown; some compounds called inactive have numbers as strong as hits
Bfl-1 A1 inh: caspase 3/7 activation in MEF A1-2A-BIM cells, primary screen, A1 inhibitor project, cell-based, luminescence, HTS; caspase activation, % (concentration not given with the values); AID 2462, 2010; Caspase-Glo 3/7 luminescence, 3 h; percent of clofoctol response, vehicle zero; 0.066% of 330,000 active;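 active = over half of replicate activation scores above 10%, or exactly half above 10 with the replicate mean above 10; inconclusive = replicate mean below 10 yet half the replicates above 10; inactive = over half of replicates below 10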;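 also: wells of about 30 µL received 50 nL stock; many hits fall short of the cut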
T cruzi repl: inhibitors of intracellular T. cruzi growth, primary screen, luminescence, NIH3T3 host cells; T. cruzi beta-gal in NIH3T3, 90 h; inhibition, % (no concentration beside the values); 1.4% of 300,000 active; AID 1885, 2009;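 active = mean inhibition across valid replicates above about 55%, limit read from the data; inconclusive = mean below that limit but half or more replicates reach it; inactive = mean below it, under half of replicates reach it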;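 also: signal also drops with host cell toxicity which is not excluded here; 0% = plate median of DMSO wells and 100% = zero luminescence signal; higher percent means less beta-gal luminescence so fewer parasites; stock transfer was 50 nL into about 50 µL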
ALR inh: inhibitors of human ALR sulfhydryl oxidase, primary screen, biochemical, H2O2 detection, HRP-luminol luminescence, single point. 3.8% of 290,000 active. FAD-linked sulfhydryl oxidase ALR (Homo sapiens), P55789. purified ALR, DTT oxidation. inhibition, % (test concentration not listed);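 active = mean and each replicate at 75% or more; inconclusive = only one of the two met; inactive = neither met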;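 also: stock transfer was 7.5 nL into about 7.5 µL; 0% = neutral wells and 100% = wells with inactivated enzyme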
Target sequence (P55789 whole entry, looked up): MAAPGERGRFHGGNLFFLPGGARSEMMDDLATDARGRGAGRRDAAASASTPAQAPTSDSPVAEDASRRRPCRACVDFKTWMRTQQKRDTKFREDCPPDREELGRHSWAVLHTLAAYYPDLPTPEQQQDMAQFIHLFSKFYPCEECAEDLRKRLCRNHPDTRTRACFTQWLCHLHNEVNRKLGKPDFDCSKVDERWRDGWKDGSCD
Calb FLC: C. albicans growth inhibition with fluconazole, primary screen, CaCi-2 strain, Alamar Blue fluorescence. C. albicans CaCi-2 (fluconazole-resistant clinical isolate) + fluconazole, 48 h. growth inhibition, % (no concentration beside the values). 0.57% of 300,000 active;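 active = most replicates above 75%; inconclusive = exactly half above 75%; inactive = most below 75%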;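 also: all wells also contain fluconazole at 8 µg/ml as a sub-toxic cotreatment; 0% = median of DMSO wells and 100% = median of geldanamycin control wells; wells of about 8 µL received 7.5 nL stock; the first replicate is given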
B2AR ag: beta2AR agonists driving receptor internalization, primary screen, cell-based, FAP fluorogen, flow cytometry; 0.43% of 340,000 active; response, % (test concentration not listed); AID 504454, 2011; Am2.2-beta2AR cells; reference of the scale not given here; Beta-2 adrenergic receptor (Homo sapiens), P07550;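 active = response above a set limit, near 3 SD of response in nonfluorescent compounds, cut at about 42% in these data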;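 also: stock transfer was 100 nL into about 11 µL; a reference agonist was the positive control; negative values mostly stem from fluorescent compounds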
Target sequence (P07550 whole entry, looked up): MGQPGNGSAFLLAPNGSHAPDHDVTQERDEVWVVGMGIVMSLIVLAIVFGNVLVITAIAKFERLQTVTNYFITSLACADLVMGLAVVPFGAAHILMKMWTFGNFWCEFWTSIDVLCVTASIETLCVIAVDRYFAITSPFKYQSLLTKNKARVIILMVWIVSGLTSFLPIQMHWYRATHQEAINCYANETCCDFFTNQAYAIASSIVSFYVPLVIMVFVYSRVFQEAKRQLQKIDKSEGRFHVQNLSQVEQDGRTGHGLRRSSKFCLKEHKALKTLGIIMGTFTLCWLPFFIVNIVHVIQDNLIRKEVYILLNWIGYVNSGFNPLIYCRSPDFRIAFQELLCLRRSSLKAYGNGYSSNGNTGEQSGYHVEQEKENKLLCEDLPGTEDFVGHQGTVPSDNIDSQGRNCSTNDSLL
Beta cell apopt: inhibitors of cytokine-induced beta cell apoptosis, primary screen, luminescence; INS-1E cytokine-induced death, ATP luminescence, 48 h; percent of positive-control rescue, neutral wells zero; protection from apoptosis, % (concentration not given with the values); 0.8% of 300,000 active;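 active = all replicates at 75% or more, or half of them and the mean; inconclusive = half reach 75% but not the mean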;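 also: 0% = cytokine-treated negative control wells and 100% = positive control rescue; higher means more ATP so stronger rescue from cytokine killing; wells of about 40 µL received 100 nL stock; the first replicate is given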
LANA-H2A inh: blockers of LANA interaction with H2A/H2B – biochemical, FP readout, HTS, primary screen | cell-free LANA-H2A/H2B peptide, fluorescence polarization | inhibition, % (no concentration beside the values) | 0.6% of 320,000 active; in the data active = inhibition mostly above about 10%, no sharp cut-off; inactive = mostly below about 6.7%;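 also: stock transfer was 7.5 nL into about 10 µL; 0% = median of vehicle wells and 100% = median of positive control wells; one replicate is shown; the record names a cut of 25% in any replicate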
Ecoli rRNA inh OD600: further read-out of Ecoli rRNA inh, marked with its call; OD600 change, %; measured here: OD600 growth;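 optical density of the mix in the first replicate; 0 = DMSO median and -100 = no signal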
Ecoli rRNA inh RFP: also measured in Ecoli rRNA inh; calls as there; RFP signal change, %; measured here: RFP humanized mutant strains;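 first replicate; 0 = DMSO median and -100 = no signal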
* marks the source's active call; other numbers are inactive results; ? = inconclusive; · = no result given.

Values run as follows: Ecoli rRNA inh	Ecoli rRNA inh OD600	Ecoli rRNA inh RFP	Bfl-1 A1 inh	T cruzi repl	ALR inh	Calb FLC	B2AR ag	Beta cell apopt	LANA-H2A inh
> CC(C)C(NC(=O)CC12CC3CC(CC(C3)C1)C2)C(=O)O (centres undefined)
  -33.1	-39.7	-21.7	0.3	-2.0	-8.0	?	6.4	2.6	0.6
> CCCCCCCCNC(=O)CC(NS(=O)(=O)c1ccc(NC(C)=O)cc1)C(C)C (centres undefined)
  ·	·	·	1.8	2.5	1.1	13.7	-5.4	2.1	0.6
> O=C(NCCC1=CCCCC1)C1CCCN(S(=O)(=O)c2ccccc2)C1 (centres undefined)
  ·	·	·	0.6	10.5	1.9	-24.2	-3.7	0.4	-0.4
> CCCn1cc(CN2CCC(Cc3cccc(F)c3)(C(=O)OCC)CC2)c(C)n1
  2.7	-4.8	-3.4	0.0	20.2	-9.4	-18.5	3.2	-3.9	5.6
> Cc1nnc(NC(=O)c2cc(-c3ccncc3)nc3c(C)cccc23)s1
  7.6	-0.9	0.3	0.2	-11.1	-3.5	-1.3	11.8	-4.7	-5.8
> CCCCCC(=O)NNC1CC(=O)N(c2cccc(OCC)c2)C1=O (centres undefined)
  13.9	7.7	2.2	-1.0	-14.5	30.7	1.4	3.8	-1.4	-2.7
> CCn1c2ccccc2c2cc(NC(C)=O)ccc21
  ·	·	·	-0.3	-1.1	0.8	19.1	-7.7	7.2	1.3
> Cc1nn(C)c(C)c1CCC(=O)N1CCCC(N2CCN(c3ccc(F)cc3)CC2)C1 (centres undefined)
  1.3	5.5	-3.0	1.1	7.7	34.4	1.2	-3.9	·	-6.6
> CCOC(=O)C1=C(c2ccccc2)NC(SC)=C(C#N)C1c1cccnc1 (centres undefined)
  13.8	9.0	-0.6	0.5	3.0	16.0	1.0	-4.9	-2.0	-1.6
> O=C(NNC1CC(=O)N(c2ccccc2)C1=O)c1ccccc1Cl (centres undefined)
  0.4	11.6	1.8	-0.2	2.9	-3.8	1.7	-1.1	-1.5	-4.3
> CC(NCc1cccc(S(=O)(=O)N(C)C)c1)c1ccc(F)cc1 (centres undefined)
  2.7	8.3	-5.0	0.4	-6.3	-23.9	-10.7	3.0	-6.8	-0.7
> O=S(=O)(c1cccc(NC(=S)NCc2ccco2)c1)N1CCOCC1
  ·	·	·	0.2	-4.4	0.0	13.3	-3.3	·	-3.2
> COc1ccccc1Nc1nc(N)nc(CN2CCN(c3ccccc3F)CC2)n1
  ·	·	·	0.2	-6.3	-2.3	9.3	12.9	-1.0	0.3
> CC1(C)CC(=O)C2=C(C1)N(c1ccc(F)cc1)C(=O)CC2c1ccccc1 (centres undefined)
  ·	·	·	1.4	3.3	-3.7	8.6	-0.3	-1.1	-2.3
> COc1ccc(C(=O)NCc2cc(C)nc3ccccc23)cc1OC
  -3.9	-4.2	-2.7	1.3	-3.6	-2.4	2.9	10.1	-6.3	-4.3
> Cc1noc(C)c1CSCC(=O)Oc1ccc(N(C)S(=O)(=O)c2ccccc2)cc1
  7.3	5.0	-2.8	0.9	-14.6	-9.6	6.4	-1.3	2.6	5.7
> COc1ccc(-n2c(C)nc3sc4c(c3c2=O)CCC4)cc1
  -19.4	-18.0	-2.7	·	-5.7	·	-2.0	-7.6	·	·
> c1ccc(Nc2n[nH]nc2-c2ccccc2)cc1
  ·	·	·	0.2	-6.6	100.0*	21.2	2.8	2.0	-4.6
> CC(=O)Oc1ccc(C(=O)Nc2cccnc2)cc1
  7.0	5.5	0.9	-1.2	-2.4	-6.2	4.5	-0.9	-3.5	0.6
> CCCCN(CC)CCNc1c(N2CCN(C(=O)OCC)CC2)c(=O)c1=O
  ·	·	·	-0.8	-11.0	-14.3	13.6	-2.7	-2.4	2.5
> Cc1ccc(NC(=O)NCCCN2CCCC2=O)c(C)c1
  3.9	16.4	-0.7	0.9	1.7	-8.5	-9.7	2.9	0.0	-0.9
> Cc1ccc(C(=O)CSc2nc3ccccc3c(=O)n2N)o1
  ·	·	·	-3.1	-14.8	0.2	10.8	-3.5	-5.5	1.8
> Cc1ccc(CONC(=O)c2ccc(C)cc2)cc1
  3.7	10.8	-0.4	-2.6	·	·	·	16.6	-4.8	5.1
> COc1ccccc1NC(=S)N/N=C1\CC(C)(C)Oc2ccc(O)cc21
  -23.8	-21.1	2.4	-0.9	-12.1	0.4	-10.5	-11.9	2.9	0.5
> O=C(COc1ccc(Br)cc1F)Nc1nnc(C2CC2)s1
  ·	·	·	-0.3	·	0.4	·	-5.3	-2.0	-2.2
> CC(C)c1cc(-c2n[nH]c(=S)n2Cc2ccccc2)cs1
  ·	·	·	0.1	9.2	47.3	-6.6	-5.1	4.0	3.6
> O=C(NC(=S)Nc1c(F)cc(F)cc1Br)c1ccc2c(c1)OCCO2
  10.5	14.4	4.0	0.2	23.9	-2.7	-0.1	7.8	7.9	0.0
> Cc1cccc(NC(=S)/N=C(\N)Nc2nc(C)c3ccccc3n2)c1
  ·	·	·	0.3	29.5	-3.1	-22.3	-8.0	0.2	11.8
> Cc1ccc(O)c(CNc2nc3ccccc3n2C)c1
  ·	·	·	0.3	-4.3	90.7*	22.3	-4.6	-1.2	2.6
> COc1ccc(C)cc1S(=O)(=O)N(C)CC(=O)Nc1ccc2c(c1)OCO2
  1.1	-1.4	0.4	-0.4	-2.0	-6.3	-5.5	1.2	-7.9	0.6
> O=C(NCCCN1CCOCC1)c1ccc2c(c1)N(Cc1c(F)cccc1Cl)C(=O)CS2
  1.0	5.0	1.7	0.1	5.9	-2.1	-10.9	0.4	1.1	-4.2
> COc1ccc(S(=O)(=O)N2CCN(Cc3cccnc3)CC2)cc1
  5.4	2.8	-0.9	·	2.4	·	-5.4	-5.2	·	·
> CC(C)C1=C2OC(N)=C(C#N)C(C#N)=C2C(C)CC1 (centres undefined)
  9.0	11.2	1.7	-0.4	-11.6	-8.3	-10.9	9.3	2.3	-1.4
> CCCCc1nc(N2CCOCC2)c(C#N)c2c1CCCC2
  ·	·	·	2.7	36.5	-9.2	4.6	5.5	2.4	-1.0
> N#Cc1c(-c2ccccc2)nc2n(c1=O)CCS2
  ·	·	·	-0.7	-6.2	-10.5	-26.9	-10.6	-4.0	4.0
> CCOC(=O)c1[nH]c2ccc(F)cc2c1NC(=O)C(C)N1CCc2cc(OC)c(OC)cc2C1 (centres undefined)
  ·	·	·	0.0	14.1	·	6.4	-3.2	-0.4	0.8
> COC(=O)c1ccc2[nH]c(CO)c(-c3ccccc3)c2c1
  -24.9	-25.5	-12.1	1.0	-8.1	1.1	-8.9	-5.6	-0.9	-1.3
> Oc1ccc2ccccc2c1Br
  -2.2	-3.2	0.7	0.0	0.9	-23.9	·	6.8	-0.2	-2.2
> CC(C)(C)Nc1nc(-c2ccccn2)nc2ccccc12
  -58.6	-82.9	-19.4	0.3	50.2	-3.3	-19.8	-8.3	118.4*	1.9
> O=C(N/N=C/c1sc(N2CCOCC2)nc1-c1ccccc1)c1ccccc1F
  ·	·	·	-0.5	19.8	-10.4	-4.0	·	-12.7	-1.2
> CCOCCCNC(=O)c1ccc(N2CC3CC(C2)c2cccc(=O)n2C3)c(NC(=O)Nc2cccc(OC)c2)c1 (centres undefined)
  -5.1	-5.2	-2.3	3.8	-3.5	·	7.9	9.7	-3.3	0.6
> O=C(CN1C(=O)CC(c2ccco2)Sc2ccccc21)Nc1ccc2c(c1)OCCO2 (centres undefined)
  ·	·	·	0.7	9.7	1.8	-4.5	-2.9	-3.3	3.9
> O=C(NCc1cccs1)c1ccc(Cl)s1
  ·	·	·	0.2	-3.0	-5.2	7.7	1.8	-1.4	2.0
> CC1=C(C(=O)NCCN2CCN(C)CC2)C2(CCC(C)CC2)OC1=O (centres undefined)
  ·	·	·	1.0	-6.8	-5.6	-17.1	-2.1	2.1	2.3
> CCOC(=O)C1(Cc2cccc(Cl)c2)CCCN(C(=O)c2ccoc2C)C1 (centres undefined)
  -10.9	-19.5	-0.7	0.3	-6.5	14.4	-17.0	-1.0	-2.2	95.3*
> CCCn1nnc(NC(=O)c2cc3ccccc3o2)n1
  6.6	2.5	0.0	-1.1	-7.7	-3.7	-7.1	0.8	-5.5	0.0
> CCOc1ccc(N2C(=O)c3ccccc3C2O)cc1 (centres undefined)
  -2.0	1.2	-2.6	-3.9	-20.4	-4.1	7.9	-13.6	-2.1	2.9
> Cc1ccc(S(=O)(=O)Cc2ccc(C(=O)N3CCCCCC3)o2)cc1
  -5.8	1.7	-4.5	-0.4	-14.6	-17.8	6.4	16.2	·	1.2
> O=C(NCCCC1CCCC1)C1CCC(=O)N(Cc2cccc(F)c2)C1 (centres undefined)
  -2.4	-11.8	3.5	-0.3	5.0	0.3	18.5	-4.3	-2.2	-0.4
> CC(C)CCNC(=O)CCn1nc(-c2ccc(Cl)cc2)ccc1=O
  -6.4	-8.2	3.0	-0.4	-4.2	·	6.3	-0.9	·	0.8
> COc1cc(CNc2ccc3[nH]c(=O)[nH]c3c2)ccc1OCC(=O)NC(C)(C)C
  ·	·	·	0.3	-2.4	·	5.9	2.5	2.1	3.6
> Cc1ccc(NC(=O)CN(C)Cc2nc3c(Br)cc(Br)cc3c(=O)[nH]2)cc1
  -7.2	-9.4	-1.6	-0.3	-17.3	·	20.3	-7.3	-16.0	4.9
> O=C(c1ccc(Br)o1)N1CCCc2ccccc21
  ·	·	·	0.5	5.7	-20.2	-6.9	5.6	-6.1	0.2
> O=C1COc2ccc(C(=O)COC(=O)c3cc(S(=O)(=O)N4CCOCC4)ccc3F)cc2N1
  -4.8	-2.2	-1.7	0.0	-3.9	2.0	-4.2	7.2	-4.4	2.4
> CCOC(=O)N1CCC(NC(=O)c2sc(-n3cccc3)nc2C)CC1
  ·	·	·	-0.8	-6.6	-16.4	41.9	-3.9	3.5	6.0
> CC(C)c1ccc(OCCCCN2CCCCC2)cc1
  4.6	-11.2	0.5	0.3	2.3	0.9	-9.7	2.3	-1.4	4.8
> CCC1S/C(=C(\C#N)C(=O)NCc2ccco2)N(c2ccc(Br)cc2)C1=O (centres undefined)
  ·	·	·	-1.1	2.5	4.5	21.5	2.0	-2.5	-1.4
> COc1cccc(NC(=O)COC(=O)CCCc2c[nH]c3ccccc23)c1
  ·	·	·	-0.7	-11.6	49.9	8.1	-5.7	-3.4	5.6

Assay outcomes (PubChem)

The list is partial; count on the stated rates, not on these rows.
